Source: PubChem
HNF4A DNA FP: change in binding of human HNF4A to DNA, primary screen, biochemical, fluorescence polarization, FITC-DNA. Hepatocyte nuclear factor 4-alpha (Homo sapiens), P41235. 1 h. activity change, % at 10 µM. 360,000 compounds, 0.3% hits; in the data active means activity change above about 30%, passing the limit was not always enough;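 further: controls were the assay level and a saturating level of protein; the project sought stronger binding though the title names inhibitors; some compounds called inactive have numbers as strong as hits; positive values seem to mean higher polarization but the record does not say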
Ecoli rRNA inh: reduced GFP signal of wild-type E. coli, primary screen, bacterial rRNA inhibitor project, GFP/RFP fluorescence, OD600, single point; E. coli WT GFP vs humanized-ribosome RFP mutants, 24 h; hits give low values; DMSO median 0, no signal -100; GFP signal change (wild-type ribosome), % (concentration not given with the values); 350,000 compounds, 1.6% hits;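 active means significant combined selectivity score with lowered wild-type GFP, culture density cut under 30%, mutant RFP and density less affected; inactive means any of these conditions unmet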; further: one replicate is shown; some compounds called inactive have numbers as strong as hits
AF4-AF9 inh: inhibitors of AF4 peptide binding to AF9, primary screen, biochemical, AlphaScreen, biotin-AF4 peptide, FLAG-AF9, single point; Protein AF-9 (Homo sapiens), P42568; inhibition, % at 10 µM; 350,000 compounds, 0.47% hits; AID 651704, 2012;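 active means every replicate reaching a set inhibition limit, whatever the replicate mean, cut at about 25% in these data; inconclusive means mean inhibition reaches that limit but some replicates miss it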;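 further: 0% = plate neutral control median and 100% = total signal loss; the record names both 10 and 1 µM as test concentration; the first replicate is given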
Target sequence (P42568 whole entry, looked up): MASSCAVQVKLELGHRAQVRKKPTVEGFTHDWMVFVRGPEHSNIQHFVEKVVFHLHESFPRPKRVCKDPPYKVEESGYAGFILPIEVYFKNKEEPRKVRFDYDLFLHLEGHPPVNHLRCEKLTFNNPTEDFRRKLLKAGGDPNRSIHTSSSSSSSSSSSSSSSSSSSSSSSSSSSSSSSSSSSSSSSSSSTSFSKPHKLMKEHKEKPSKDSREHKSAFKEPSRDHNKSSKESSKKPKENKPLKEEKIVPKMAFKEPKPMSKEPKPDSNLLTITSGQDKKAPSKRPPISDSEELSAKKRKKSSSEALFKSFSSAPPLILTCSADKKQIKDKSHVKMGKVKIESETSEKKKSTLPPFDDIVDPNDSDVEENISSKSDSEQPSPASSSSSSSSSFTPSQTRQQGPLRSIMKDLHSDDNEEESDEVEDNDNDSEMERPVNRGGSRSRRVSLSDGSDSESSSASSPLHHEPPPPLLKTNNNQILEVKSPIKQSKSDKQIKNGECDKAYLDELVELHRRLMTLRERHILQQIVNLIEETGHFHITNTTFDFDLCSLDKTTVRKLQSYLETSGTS
FGF22 binding: binders of human FGF22 protein, primary screen, FGF22 synaptogenesis inhibitor project, biophysical, thermal shift, single point | Fibroblast growth factor 22 (Homo sapiens), Q9HCT0 | recombinant FGF22 thermal shift, SYPRO orange fluorescence; percent of sucrose octasulfate shift, DMSO zero | calls only at 9.99 µM | 340,000 compounds, 1.5% hits;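 active means melting point raised past a set limit in the mean and every replicate; inconclusive means no clear call; three in four hits are not shown here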
Target sequence (Q9HCT0 whole entry, looked up): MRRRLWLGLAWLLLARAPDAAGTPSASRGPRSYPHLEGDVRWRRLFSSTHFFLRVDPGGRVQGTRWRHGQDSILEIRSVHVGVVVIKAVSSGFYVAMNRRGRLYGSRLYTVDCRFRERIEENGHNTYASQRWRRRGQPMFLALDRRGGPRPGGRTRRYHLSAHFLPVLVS
ALR inh: inhibitors of human ALR sulfhydryl oxidase, primary screen, biochemical, H2O2 detection, HRP-luminol luminescence, single point. FAD-linked sulfhydryl oxidase ALR (Homo sapiens), P55789. 290,000 compounds, 3.8% hits. AID 485317, 2010. inhibition, % (test concentration not listed). purified ALR, DTT oxidation;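 active means mean and each replicate at 75% or more; inconclusive means only one of the two met; inactive means neither met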;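 further: stock transfer was 7.5 nL into about 7.5 µL; 0% = neutral wells and 100% = wells with inactivated enzyme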
Target sequence (P55789 whole entry, looked up): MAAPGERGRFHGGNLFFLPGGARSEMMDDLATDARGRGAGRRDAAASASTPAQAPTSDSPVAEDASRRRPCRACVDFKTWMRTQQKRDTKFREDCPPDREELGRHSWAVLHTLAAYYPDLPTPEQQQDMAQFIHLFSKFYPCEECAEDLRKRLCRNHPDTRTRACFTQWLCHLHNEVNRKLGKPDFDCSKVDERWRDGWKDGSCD
E coli growth: E. coli growth inhibition, primary screen, OD600 | Escherichia coli growth, 23 h; hits give low values | OD600 absorbance (no concentration beside the values) | 330,000 compounds, 0.21% hits;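 active means OD600 absorbance below the run mean of sample wells minus 3.6 SD, in any replicate, cut at about 0.56 in these data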;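 further: stock transfer was 300 nL into about 60 µL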
Vif TR-FRET: inhibitors of Vif binding to APOBEC3G peptide, primary screen, biochemical, TR-FRET, GST-Vif 1-94, biotin-A3G peptide, dose response retest (AID 1117319). 260,000 compounds, 0.57% hits. Virion infectivity factor (Human immunodeficiency virus type 1 group M subtype B (isolate …. TR-FRET GST-Vif / biotin-A3G peptide binding; higher % means a stronger effect; test concentration not given here; strong numbers were not always called active. one-dose inhibition, %; IC50 in µM for titrated hits;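 active means above the screen mean plus three standard deviations and confirmed in dose response; inconclusive means results disagree or hit not tested in dose response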;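 further: Vif residues 1-94 fused to GST binding biotinylated APOBEC3G peptide 110-148; 0% = full assay without inhibitor and 100% = GST in place of GST-Vif; retest series ran down from 100 µM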
Ecoli rRNA inh OD600: second read-out of Ecoli rRNA inh, no call of its own (marks repeat the call); OD600 change, %; measured here: OD600 growth;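 optical density of the mix in the first replicate; 0 = DMSO median and -100 = no signal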
Ecoli rRNA inh RFP: recorded beside Ecoli rRNA inh, whose call it bears; RFP signal change, %; measured here: RFP humanized mutant strains;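 first replicate; 0 = DMSO median and -100 = no signal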
Active calls of the source: *; i = inactive; ? = inconclusive; · = no result given; & = joins results of further samples.

SMILES	HNF4A DNA FP	Ecoli rRNA inh	Ecoli rRNA inh OD600	Ecoli rRNA inh RFP	AF4-AF9 inh	FGF22 binding	ALR inh	E coli growth	Vif TR-FRET
C=C(C)C(=O)OCC(O)COc1ccc(C(C)(C)c2ccc(OCC(O)COC(=O)C(=C)C)cc2)cc1 (centres undefined)	-0.7	-13.1	-7.1	-2.5	-3.8	i	·	·	·
COc1ccc(NC(=O)Nc2ccc3c(c2)C(=O)N([C@@H](C)CO)C[C@H](C)[C@H](CN(C)S(=O)(=O)c2ccc(C)cc2)OCCCC[C@@H](C)O3)cc1	·	0.6	2.4	-2.2	-4.3	i	·	·	·
c1ccc(-c2ccc(-c3nc(-c4ccncc4)no3)cc2)cc1	-0.7	·	·	·	·	·	-7.2	0.712	0.6%
O=[N+]([O-])c1ccc(NS(=O)(=O)N2CCOCC2)cc1	5.1	19.1	6.7	2.8	0.0	i	-2.0	0.668	·
COc1ccc(NC(=O)C2CSC(C)(C)N2C=O)cc1 (centres undefined)	-2.8	·	·	·	·	·	·	0.724	-4.0%
O=[N+]([O-])c1cccc(OCC(O)CN2CCN(S(=O)(=O)c3cc(Cl)ccc3Cl)CC2)c1 (centres undefined)	3.7	-12.0	-10.9	3.0	3.4	i	-4.1	0.679	·
Oc1ccccc1C=NN=CC=Cc1ccccc1	0.9	14.3	18.4	1.1	?	i	·	·	-6.3%
CCC(CO)Oc1cc(NC(=O)c2ccccc2Cl)c2ncn(C(C)C)c2c1 (centres undefined)	-1.5	-19.1	-16.2	0.3	2.9	i	-27.6	0.676	·
CCOC(=O)c1cccc(NC(=O)Nc2ccc3c(c2)C(=O)OC3)c1	2.4	22.4	12.2	2.0	1.5	i	1.6	0.645	10.4%
COc1ccc(C(=O)/C=C/c2ccc(N3CCCCC3)c([N+](=O)[O-])c2)cc1	9.4	·	·	·	·	·	1.5	0.749	·
COc1ccc(-c2cnc3c(c2)C(=O)N([C@@H](C)CO)C[C@@H](C)[C@@H](CN(C)Cc2ccc(C(=O)O)cc2)O3)cc1	·	-0.7	14.9	-5.8	-3.3	i	·	·	·
CCCCNC(=O)c1c(CSc2ccc(Cl)cc2)noc1C(=O)NCc1ccccc1	-0.8	7.7	-1.7	3.5	-6.8	i	·	0.712	·
C#CCNC(=O)C[C@@H]1C[C@@]2(C(=O)OC)CCCCC=C2N(Cc2ccc3c(c2)OCO3)C1=O	-3.4	-8.3	-4.2	3.3	1.0	i	·	·	·
CCN(CC)C(=O)CSc1nc(N)c2c3c(sc2n1)CC(C)CC3 (centres undefined)	-2.4	·	·	·	·	·	-0.5	0.725	-8.5%
CCN(CC)C(=O)c1ccc(S(=O)(=O)NCc2cccnc2)cc1	1.1	11.9	5.6	-3.0	-2.9	i	-3.5	0.664	-3.9%
N#Cc1ccccc1COC(=O)c1cccnc1N	-1.6	6.8	10.6	-2.0	0.6	i	0.3	0.699	25.8%
CN(C)C(=O)c1ccc(SC(=S)NCc2ccccc2)cc1	-0.5	4.8	9.1	4.2	-4.6	i	·	·	·
CCOCCCNc1nc2c(C)cccn2c(=O)c1/C=C1\SC(=S)N(C(C)CC)C1=O (centres undefined)	8.4	112.5	12.4	64.5	-2.2	·	8.0	0.712	-1.2%
COCCN(C(=O)COC(=O)C1CCCCC1)c1c(N)n(Cc2ccccc2)c(=O)[nH]c1=O	0.0	4.5	0.9	-1.3	-8.6	i	·	·	1.1%
Cc1noc(C)c1S(=O)(=O)N(C)C[C@@H]1OCc2cnnn2CCCC(=O)N([C@@H](C)CO)C[C@@H]1C	·	7.5&-0.2	12.3&5.7	4.3&-0.2	1.0&-0.4	i	·	·	·
C[C@@H]1CN([C@H](C)CO)C(=O)Cc2cc(NC(=O)Nc3ccccc3)ccc2O[C@@H]1CN(C)Cc1ccc(-c2ccccc2)cc1	·	8.1	5.1	-0.1	0.8	i	·	·	·
CCn1nc(C)c(CN2CCC(n3nccc3NC(=O)c3ccccc3OC)CC2)c1C	6.7	11.6	10.0	1.3	-3.3	i	-20.9	0.623	·
COc1ccccc1CNC(=O)C1(C)CCCCN1C (centres undefined)	2.4	9.1	12.5	-0.6	-4.7	i	·	·	·
Cc1nn(-c2ccc(C(=O)O)cc2)c(C)c1Oc1ccccc1O	0.9	·	·	·	·	·	56.2	0.674	4.5%
O=C1C(NS(=O)(=O)c2ccc(Br)cc2)=C(N2CCCCC2)C(=O)c2ccccc21	-4.5	-11.3	-32.6	2.9	38.0*	i	-1.7	0.709	·
Cc1cccc2nc(-c3cccc(NC(=O)c4ccc(Cl)cc4)c3)cn12	2.8	-9.0	-6.1	14.7	-1.9	i	2.1	0.714	-35.6%
O=C(COC(=O)c1cc([N+](=O)[O-])ccc1N1CCOCC1)Nc1cc(F)ccc1F	-0.1	-13.1	-13.3	-0.6	5.2	i	-6.3	0.662	5.9%
CC[C@]12c3[nH]c4cc(-c5ccco5)ccc4c3CCN1C(=O)[C@@H](CC(=O)NCc1ccc(OC)c(OC)c1)C[C@@H]2C(=O)N1CCN(C(=O)C2CC2)CC1	5.3	-5.1	6.7	7.4	6.8	i	·	0.709	-1.7%
O=C(Nc1ccccc1F)N(CCCN1CCOCC1)Cc1cc2cc3c(cc2[nH]c1=O)OCCO3	-2.1	·	·	·	·	·	·	0.759	0.5%&4.4%
CNC[C@@H]1OCCCC[C@@H](C)Oc2ccc(NS(=O)(=O)c3ccc(Cl)cc3)cc2C(=O)N([C@H](C)CO)C[C@H]1C	·	8.6	2.4	2.2	-5.3	i	·	·	·
NC(=O)CSc1nnc(NC(=O)c2ccc(S(=O)(=O)N3CCOCC3)cc2)s1	-2.0	14.7	11.3	1.7	-1.8	i	-6.6	0.729	·
CO[C@@H]1CN(C)C(=O)c2ccc(NC(=O)Nc3ccc(Cl)cc3)cc2OC[C@H](C)N(C(=O)Nc2c(C)noc2C)C[C@@H]1C	·	-4.9	-5.3	8.2	4.5	i	·	·	·
CCC(=O)N(C)C[C@H]1Oc2ncc(C#Cc3ccccc3OC)cc2C(=O)N([C@@H](C)CO)C[C@H]1C	·	2.3	2.7	-0.6	-10.4	i	·	·	·
Cc1ccc(N(CC(=O)Nc2ccc(F)c(Cl)c2)S(=O)(=O)c2c(C)noc2C)cc1	2.2	·	·	·	·	·	·	0.745	-1.7%
COc1ccc(S(=O)(=O)N[C@H]2CC[C@H](CC(=O)NCCc3ccccc3)O[C@H]2CO)cc1	·	2.8	-0.3	2.0	-1.7	i	·	·	·
C=CCOC(=O)C1=C(C)OC(N)=C(C#N)C1c1ccccc1F (centres undefined)	0.6	·	·	·	·	·	·	0.721	3.9%
C[C@@H]1CN([C@H](C)CO)C(=O)c2cc(NC(=O)CCC(F)(F)F)ccc2O[C@@H]1CN(C)C(=O)NC1CCCCC1	·	2.7	13.4	0.2	-0.4	i	·	·	·
COc1ccc(N(C(=O)Cc2cccs2)C(C(=O)NC2CCCCC2)c2cccn2C)cc1 (centres undefined)	-2.4	·	·	·	·	·	-0.1	0.762	17.7%
COCCNC(=O)CCc1c(C)nc2c(c(C)nn2-c2ccc(C)c(C)c2)c1C	1.4	9.7	24.3	7.5	-0.6	i	4.7	0.629	-13.2%
CC(C)N1CCN(Cc2ccc(C#CCCO)cc2)CC1CCO (centres undefined)	4.2	8.5	19.0	-0.7	0.4	i	9.1	0.645	9.0%
CSc1sc(C(=O)O)c2c1C(=O)CC(C)(C)C2	-1.3	0.6	-11.8	-7.0	-4.5	i	2.0	0.61	·
CC(C)NC(=O)N(C)C[C@H]1OCCCC[C@@H](C)Oc2ccc(N(C)C)cc2C(=O)N([C@@H](C)CO)C[C@@H]1C	·	-2.1	-0.1	-1.1	3.1	i	·	·	·
COc1ccc(CN(C)C[C@@H]2Oc3ccc(NS(=O)(=O)c4cn(C)cn4)cc3C(=O)N([C@@H](C)CO)C[C@H]2C)cc1	·	-0.9	10.2	-0.9	-2.9	i	·	·	·
COc1ccc(CN(C(=O)CN2C(=O)C(C)Oc3ccccc32)C2CCCC2)c(OC)c1 (centres undefined)	-2.3	·	·	·	-24.8	i	-0.1	0.681	-0.3%
CCOC(=O)c1ccc(S(=O)(=O)NCCN(CC)CC)cc1	-1.8	9.3	9.8	5.8	1.7	i	-7.4	0.441*	23.9%
Cc1ccc(Cl)cc1NC(=O)CON=C(N)c1ccccc1	0.6	-9.2	-13.2	0.0	1.7	i	·	0.678	2.6%
CN(Cc1cnc2nc(N)nc(N)c2n1)c1ccc(C(=O)NC(CCC(=O)O)C(=O)O)cc1C(F)(F)F (centres undefined)	-0.5	·	·	·	-1.7	i	·	·	4.2%
CO[C@H](CN(C)C(=O)c1ccc2c(c1)OCO2)[C@H](C)CN([C@H](C)CO)S(=O)(=O)c1ccc(F)cc1	·	4.0	13.6	-5.5	1.8	i	·	·	·
O=C(c1ccc2c(c1)OCO2)N1C[C@H]2[C@@H](c3ccccc31)[C@H](CO)N2C(=O)CC1CC1	·	1.3	-9.5	1.2	-9.6	i	·	·	·
COc1cc(C(=O)N/C(=C\c2cn(C)c3ccccc23)C(=O)NCCCN2CCOCC2)cc(OC)c1OC	-0.3	-2.5	0.6	-1.4	1.3	i	9.8	0.625	·
COc1cc(C(=O)NCc2ccccn2)ccc1OCc1c(C)noc1C	-4.9	·	·	·	·	·	-5.2	·	15.0%
CN(C)CCCNC(=O)[C@H]1[C@H](CO)[C@H]2Cn3c(ccc(-c4cccnc4)c3=O)[C@@H]1N2C(=O)CC1CC1	·	1.1	10.0	2.4	-4.3	i	·	·	·
COc1ccccc1C(=O)NCCC(=O)NCc1ccncc1	-1.1	4.9	9.9	-1.9	3.2	i	0.2	0.665	-3.9%
Cc1cc(C(=O)CN2CCC(C)CC2)c(C)n1-c1ccccc1F	1.2	·	·	·	-3.0	i	-2.0	0.684	·
CC(C)NC(=O)Nc1ccc2c(c1)CC(=O)N([C@@H](C)CO)C[C@@H](C)[C@@H](CN(C)Cc1ccc(C(=O)Nc3ccccc3N)cc1)O2	·	-2.7	1.8	-3.5	0.1	i	·	·	·
O=c1cc(CSc2nnc(COc3cccc4ccccc34)o2)c2ccccc2[nH]1	5.4	6.3	6.6	5.4	-3.6	·	-6.2	0.693	·
Cc1cc(NCCCN(C)C)n2c(nc3ccccc32)c1C#N	-4.1	-2.4	1.0	1.6	-0.7	i	-103.4	0.687	-1.1%
COc1ccccc1N1CCN(C(=O)CSc2ncnc3c2cnn3-c2ccc(C)c(C)c2)CC1	·	·	·	·	·	·	-21.6	0.724	7.7%

2 records picked at random from the list so far, as already listed:
SMILES	HNF4A DNA FP	Ecoli rRNA inh	Ecoli rRNA inh OD600	Ecoli rRNA inh RFP	AF4-AF9 inh	FGF22 binding	ALR inh	E coli growth	Vif TR-FRET
COc1ccccc1N1CCN(C(=O)CSc2ncnc3c2cnn3-c2ccc(C)c(C)c2)CC1	·	·	·	·	·	·	-21.6	0.724	7.7%
O=c1cc(CSc2nnc(COc3cccc4ccccc34)o2)c2ccccc2[nH]1	5.4	6.3	6.6	5.4	-3.6	·	-6.2	0.693	·

A portion of the library; rates above refer to the full screens.
